KCNQ2 block = KCNQ2 potassium channel inhibitors, primary screen, cell-based, CHO-K1, FluxOR thallium flux, B-score (AID 2156). Potassium voltage-gated channel subfamily KQT member 2 (Rattus norvegicus), O88943. 20 min; active compounds read low; only compounds with negative scores are shown here; some inactives read as strong as hits. B-score at 10 µM. actives 1.1% (n = 310,000);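 active = fluorescence ratio B-score at most minus 3 library SDs, with starting brightness B-score within 2 library SDs, cut at about -5.5 in these data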
Target sequence (O88943 whole entry, looked up): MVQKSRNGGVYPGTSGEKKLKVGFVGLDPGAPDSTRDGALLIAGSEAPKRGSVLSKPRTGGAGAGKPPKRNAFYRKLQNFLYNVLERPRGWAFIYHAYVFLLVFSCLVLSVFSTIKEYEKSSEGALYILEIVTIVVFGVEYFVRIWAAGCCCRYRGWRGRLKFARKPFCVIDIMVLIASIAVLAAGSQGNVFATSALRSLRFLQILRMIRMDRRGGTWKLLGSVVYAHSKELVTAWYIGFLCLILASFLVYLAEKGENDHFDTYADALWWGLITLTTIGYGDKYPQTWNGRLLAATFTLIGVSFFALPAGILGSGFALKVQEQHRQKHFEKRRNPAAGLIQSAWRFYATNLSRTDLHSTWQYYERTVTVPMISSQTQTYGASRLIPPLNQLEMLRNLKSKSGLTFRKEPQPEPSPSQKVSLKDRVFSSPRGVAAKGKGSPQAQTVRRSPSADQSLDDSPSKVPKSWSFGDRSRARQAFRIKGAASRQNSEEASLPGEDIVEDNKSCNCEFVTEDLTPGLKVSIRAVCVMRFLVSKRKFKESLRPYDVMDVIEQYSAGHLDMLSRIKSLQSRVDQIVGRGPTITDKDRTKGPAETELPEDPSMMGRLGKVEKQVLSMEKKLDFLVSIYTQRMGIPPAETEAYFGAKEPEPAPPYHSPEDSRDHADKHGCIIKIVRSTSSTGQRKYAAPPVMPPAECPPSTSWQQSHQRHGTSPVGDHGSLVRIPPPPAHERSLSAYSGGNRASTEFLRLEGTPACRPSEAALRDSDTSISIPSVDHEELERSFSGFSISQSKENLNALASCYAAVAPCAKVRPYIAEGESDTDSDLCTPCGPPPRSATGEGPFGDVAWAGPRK
KCNQ2 block baseline = second read-out of KCNQ2 block, no call of its own (marks repeat the call); B-score; measured here: initial fluorescence intensity artifact check;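 brightness before thallium and not channel activity; 0 = typical well and far values either way flag optical interference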
Numbers without * were called inactive; i = inactive. Some of the compounds tested (hit frequency here may not be typical).

SMILES	KCNQ2 block	KCNQ2 block baseline
CCOC(=O)C1=C(C)NC(=O)NC1c1ccc(OC(=O)c2ccco2)cc1 (stereo not drawn)	i	1.6
Cc1ccc(OCc2ccc(Br)cc2)c([N+](=O)[O-])n1	i	-0.41
CCC(CC)C(=O)OCC(=O)Nc1cccc(S(=O)(=O)N(C)c2ccccc2)c1	i	-2.5
O=C(/C=C\c1ccccc1[N+](=O)[O-])Nc1ccccc1	i	-0.31
CCN(CC(=O)NCc1ccc(Cl)cc1)C(=O)CCc1ccccc1	i	-0.11
Cc1ccc(-c2ccc(=O)n(CCC(=O)NCCN3CCCCC3C)n2)cc1 (stereo not drawn)	i	-0.03
CC(=O)c1ccc(-c2ccc(/C=C(/Sc3n[nH]c(C)n3)C(=O)O)o2)cc1	i	-2.2
CCN(CC)S(=O)(=O)c1ccc(O)c(C(=O)OCC(=O)N(C)Cc2ccccc2)c1	i	0.73
CN(C)C(=O)/C(=C/c1ccc(-c2cccc([N+](=O)[O-])c2)o1)NC(=O)c1ccccc1	i	1.6
NC1=C(c2ccc(F)cc2)C(=O)CS1	i	0.63
COc1cc(/C=C(\C#N)C(=O)Nc2ccccc2C(=O)O)cc(Cl)c1OC	i	0.02
O=C1CSC2(N1)C1CC3CC(C1)CC2C3 (stereo not drawn)	i	-0.3

Seven entries drawn at random from those above, as already listed:
SMILES	KCNQ2 block	KCNQ2 block baseline
O=C(/C=C\c1ccccc1[N+](=O)[O-])Nc1ccccc1	i	-0.31
COc1cc(/C=C(\C#N)C(=O)Nc2ccccc2C(=O)O)cc(Cl)c1OC	i	0.02
CC(=O)c1ccc(-c2ccc(/C=C(/Sc3n[nH]c(C)n3)C(=O)O)o2)cc1	i	-2.2
CCN(CC(=O)NCc1ccc(Cl)cc1)C(=O)CCc1ccccc1	i	-0.11
CCC(CC)C(=O)OCC(=O)Nc1cccc(S(=O)(=O)N(C)c2ccccc2)c1	i	-2.5
CCN(CC)S(=O)(=O)c1ccc(O)c(C(=O)OCC(=O)N(C)Cc2ccccc2)c1	i	0.73
CCOC(=O)C1=C(C)NC(=O)NC1c1ccc(OC(=O)c2ccco2)cc1 (stereo not drawn)	i	1.6

Next section.
SMILES	KCNQ2 block	KCNQ2 block baseline
COc1ccc(/C(O)=C2/C(=O)C(=O)N(c3ccccn3)C2c2ccc(OC)c(OC)c2)cc1 (stereo not drawn)	i	-0.13
COc1ccccc1N1CCN(C(=O)CSc2ccccc2)CC1	i	-1.3
O=C(NCCCN1CCCC1=O)c1cc(-c2ccc3c(c2)OCO3)nc2ccccc12	i	-0.58
O=C(Nc1ncc(Cc2ccccc2Cl)s1)C1CCCO1 (stereo not drawn)	i	-0.76
O=C(NC(=S)NCc1cccnc1)c1cccc2ccccc12	i	0.3
O=C(CSc1nc2ncccc2[nH]1)NCCc1ccccc1	i	-0.42
COc1ccc(OC)c(-n2c(=S)[nH]c3cc(C(=O)N4CCCCC4)ccc3c2=O)c1	i	-0.23
COc1cccc(-c2cccc(NC(=O)C3CCN(Cc4ccc(C)o4)CC3)c2)c1	i	-0.75
CCO/C=C1\SC(=S)N(c2ccc(Cl)cc2)C1=O	i	-0.67
NS(=O)(=O)c1cccc(NC(=O)c2cccc(Oc3ccccc3)c2)c1	i	-0.05
CC1CCCC(C)N1/N=C/c1ccc(N(C)C)cc1 (stereo not drawn)	i	1.1
Cc1cc(N2C(=O)C(O)=C(C(=O)c3cc4ccccc4o3)C2c2ccc(Cl)cc2)no1 (stereo not drawn)	i	-1.6
CN(C(=O)Nc1ccc(Cl)cc1Cl)[C@H]1c2cc(Br)ccc2OC[C@H]1CO	i	1.1
Cc1ccc2c(c1)NC(=O)C(CC(=O)NCCCN1CCc3ccccc3C1)O2 (stereo not drawn)	i	0.28
Brc1ccc(Oc2nsnc2N2CCOCC2)cc1	i	-0.01
CCOc1ccc(Nc2nc(CC(=O)OC)cc(=O)[nH]2)cc1	i	1.6
Cc1ccc(S(=O)(=O)N2CCN(CC(O)c3ccccc3)CC2)cc1 (stereo not drawn)	i	0.2
CS(=O)(=O)N(CC(=O)N1CCCC1)c1ccc(OCc2ccccc2)cc1	i	-0.27
O=C(CC1S/C(=N/N=C/c2ccco2)NC1=O)Nc1ccccc1 (stereo not drawn)	i	0.68
Cc1ccc(S(=O)(=O)c2cn(C)c3cc(N4CCN(C)CC4)c(F)cc3c2=O)cc1	i	0.08
Nc1nc2n(n1)C(c1ccco1)CC(c1ccc(Cl)c(Cl)c1)N2 (stereo not drawn)	i	-2.1
Cc1ccc(S(=O)(=O)/N=C(/NC(=S)Nc2ccccc2)c2ccccc2)cc1	i	-1.8
C[n+]1c(/C=C/c2ccc3c(c2)OCO3)ccc2ccccc21	i	0.95
Cc1ccc2c(c1)N(C(=O)CCC(=O)N1CCN(c3cccc(C)c3C)CC1)CCO2	-5.7*	0.33*
O=C1/C(=C2/NCCN2C2CC(=O)N(c3ccccc3)C2=O)CC/C1=C\c1ccccc1 (stereo not drawn)	i	0.37
O=C(CN1CCOCC1)N1CCCc2ccccc21	i	1.4
COc1cccc(NC(=O)CN(C)C(=O)c2c(C)nn(Cc3ccc(C)cc3)c2Cl)c1	i	-0.44
Cn1nc(-c2ccc(Cl)cc2)c2cc(C(=O)NCCCN3CCCC3)sc21	i	0.8
CC(=O)Nc1ccc(NC(=O)CSCc2ccccc2Cl)cc1	i	-0.49
Cc1[nH]c2ccccc2c1SCc1n[nH]c(=S)n1C	i	-1.1
CN(C)S(=O)(=O)c1cccc(NC(=O)CNCc2ccccn2)c1	i	-2.9
Cc1ccc(C)c(S(=O)(=O)Nc2ccc(C(N)=O)cc2)c1	i	0.85
COc1cc2[nH]c(=S)nc(Nc3ccc(NC(C)=O)cc3)c2cc1OC	i	1.2
CCOc1ccc(-c2nnc(-c3cccnc3)o2)cc1OCC	i	-0.67
CCC(C)NC(=S)Nc1ccc2nc(N3CCOCC3)cc(C)c2c1 (stereo not drawn)	i	0.25
Cc1ccc(C(=O)Nc2ccc3[nH]c(=O)[nH]c3c2)c(C)c1	i	-2.8
Cc1ccc(-c2[nH]ncc2C(=O)c2cccc(F)c2)c(O)c1	i	-0.38
COc1ccc(S(=O)(=O)N(C)c2c(C)n(C)n(-c3ccccc3)c2=O)cc1OC	i	-0.2
O=C(CCN1CCN(S(=O)(=O)c2ccc(F)cc2)CC1)Nc1ccccc1F	i	-0.55
O=c1c(CN2CCN(c3cccc(Cl)c3)CC2)coc2c(Cl)cc(Cl)cc12	i	-0.95
O=C(O)C1C(=O)NCC1c1ccccc1 (stereo not drawn)	i	-1.9
COc1ccc(C(=O)/C=C/c2ccc(OC(=O)c3cc(OC)c(OC)c(OC)c3)cc2)cc1	i	-0.93
COc1ccc(NC(=S)Nn2cnnc2)cc1OC	i	1.2
Cc1ccc(NC(=O)/C(=C/c2cccs2)NC(=O)c2ccco2)cc1	i	2.1
O=C1NCCCC2c3c(cc(Br)c(O)c3Br)OC12N1CCOCC1 (stereo not drawn)	i	-0.01
COC(=O)C1=NN(C(C)=O)C2(CC(=O)N(c3cccc(C)c3)C2=O)C1 (stereo not drawn)	i	1.3
Cc1nn(C)cc1C(C(=O)NC1CCCCC1)N(C(=O)Cc1cccs1)c1ccc(C(C)C)cc1 (stereo not drawn)	i	-0.16
CCCn1c2c(c(O)c(C(=O)Nc3ccc(OCC)cc3)c1=O)CCCC2	i	-2.4
CC(C)(C)c1ccc(OCCNC(=S)Nc2ccccc2)cc1	i	0.88
CCOC(=O)CN1C(=O)S/C(=C/c2ccc(OC)c([N+](=O)[O-])c2)C1=O	i	-0.16
COc1ccc(CN2CCNC(=O)C2CC(=O)NCC2CCOCC2)c(C)c1C (stereo not drawn)	i	0.02
CN(Cc1cnccn1)Cc1c(C(=O)N2CCc3ccccc3C2)nc2ccc(Cl)cn12	i	-1.2
CC(C)CNS(=O)(=O)c1ccc(CCC(=O)Nc2ccc3c(c2)OCO3)cc1	i	0.74
Cc1ccc(Cn2ccc(NC(=O)c3cc(-c4ccc(Br)cc4)on3)n2)cc1	i	0.52
C/C(=N/Nc1nc(-c2ccccc2)cc(-c2ccc(F)cc2)n1)c1cccc(N)c1	i	0.62
Cc1ccc(CNC(=O)COC(=O)c2ccc(S(=O)(=O)N3CCCC3)cc2)cc1	i	-0.28
CC(C)(C)n1ncc2c(=O)n(CC(=O)Nc3ccccc3)cnc21	i	0.11
C/C(N)=C(/C#N)C(=O)CSc1ccccc1F	i	1.1
O=C(C#Cc1ccccc1)c1cccc([N+](=O)[O-])c1	i	1.4
CCOC(=O)c1[nH]cnc1C(=O)Nc1ccc(F)cc1	i	1.9
The list continues:
SMILES	KCNQ2 block	KCNQ2 block baseline
O=C(/C=C/c1ccc(F)cc1)Nc1cccc(S(=O)(=O)Nc2cccc(C(F)(F)F)c2)c1	i	0.91
CCCCN(CC)CCNC(=O)CCNC(=O)Cn1ccc2ccccc2c1=O	i	2.4
COc1ccc(NC2CCCN(Cc3cccc4cnccc34)C2)cc1 (stereo not drawn)	i	0.77
Cn1c(CC(=O)NN)c(Sc2ccccc2)c2ccccc21	i	0.75
CCOC(=O)/C(C#N)=C/c1cc(C)n(-c2ccccc2)c1C	i	0.02
CCN1CCN(CC(=O)Nc2cc(F)ccc2C)CC1	i	1.6
Cc1ccc(Nc2c(-c3ccccn3)nc3cc(C)ccn23)cc1	i	-1.2
CCC(NC(=O)c1ccccc1NC(=O)c1ccco1)C(=O)NNC(=O)c1ccncc1 (stereo not drawn)	i	-0.01
CC(=O)c1ccc(N2CCC(C(=O)O)CC2)cc1	i	-0.72
Cc1ccc2c(c1)N(C(=O)CCC(=O)NC1CCCCCC1)CC(C)O2 (stereo not drawn)	i	0.81
COc1ccc(OCC(=O)Nc2ccccc2C(=O)Nc2ccc(C(=O)O)cc2)cc1	i	1.7
Cn1ccnc1C(O)c1ccccc1 (stereo not drawn)	i	-2
O=c1oc2ccc(Br)cc2cc1-c1nc2ccccc2o1	i	0.8
COCCN1C2=C(COC(C)(C)C2)C(=S)NC1c1ccccc1 (stereo not drawn)	i	-0.98
Cc1nc([N+](=O)[O-])cn1CC(=O)Nc1ccc2c(c1)OCO2	i	0.26
CCCCOc1ccc(/C=C/C(=O)OCC(=O)NC(=O)NCC(C)C)cc1OCC	i	-0.02
O=S(=O)(N[C@H]1C[C@@H](NS(=O)(=O)OCC(Cl)(Cl)Cl)C2CCCCC21)OCC(Cl)(Cl)Cl (stereo partly drawn)	i	0.65
COc1ccc(C(=O)N/N=C(\N)c2cc3ccccc3oc2=O)cc1	i	0.5
CC(NC(=S)NC(=O)c1ccccc1Br)c1ccccc1 (stereo not drawn)	i	-1.1
Cn1c(/C=N/n2cnnc2)nc2ccccc21	i	0.9
COc1ccc(NC(=S)NCC2CCCO2)c(C)c1 (stereo not drawn)	i	-1.1
O=C(/C=C/c1ccccc1)NCCSCc1ccccc1	i	0.74
Cc1ccccc1OCCOC(=O)c1c(-c2ccccc2)noc1C	i	-1.2
CCCN1CCN(c2ccc([N+](=O)[O-])cc2C#N)CC1	i	-2

5 entries from above, set out differently:
| SMILES | KCNQ2 block | KCNQ2 block baseline |
| --- | --- | --- |
| COc1ccc(C(=O)N/N=C(\N)c2cc3ccccc3oc2=O)cc1 | i | 0.5 |
| O=C(/C=C/c1ccccc1)NCCSCc1ccccc1 | i | 0.74 |
| COc1ccc(NC(=S)NCC2CCCO2)c(C)c1 (stereo not drawn) | i | -1.1 |
| CCCN1CCN(c2ccc([N+](=O)[O-])cc2C#N)CC1 | i | -2 |
| O=S(=O)(N[C@H]1C[C@@H](NS(=O)(=O)OCC(Cl)(Cl)Cl)C2CCCCC21)OCC(Cl)(Cl)Cl (stereo partly drawn) | i | 0.65 |

Carrying on:
SMILES	KCNQ2 block	KCNQ2 block baseline
O=C(Nc1ccc(Cl)c(Cl)c1)c1ccc(Cn2cc(Cl)cn2)cc1	i	0.09
Cc1ccc(C2CC(c3cccs3)=NN2C(=O)CSc2nc(=O)n3ccc(C)cc3n2)cc1 (stereo not drawn)	i	-0.11
CN1CCC(N(C)C(=O)c2ccccc2F)CC1	i	-0.02
COCCCNC(=O)CCc1c(C)nc2c(c(C)nn2-c2ccc(C)cc2)c1C	i	2.4
CC(C)=CCC(C)(C)CNC(=O)NC1CCCCC1	i	0.08
CC(=O)c1cc(-c2ccccc2)n(CC(=O)N2CCN(C3CCCC3)CC2)c1C	i	-0.08
CCN(CC)c1ccc(NC(=O)COc2ccc(N(C)S(=O)(=O)c3cccs3)cc2)cc1	i	2.4
O=C(NCCc1ccccc1)C1CCCN1S(=O)(=O)c1ccccc1 (stereo not drawn)	i	-0.01
CC(C)C(=O)N1CCC(c2nc(-c3ccc(S(=O)(=O)N4CCCC4)cc3)no2)CC1	i	0.79
CCc1ccc(CNc2ccc3c(c2)ncn3CC)cc1	i	-1.1
COc1ccccc1N1CCN(C(c2cccs2)C(C)NC(=O)c2cccs2)CC1 (stereo not drawn)	i	-0.15
COc1ccc(N(CC(=O)NCc2cccs2)S(=O)(=O)c2c(C)nn(C)c2C)cc1	i	1.6
O=C(COC(=O)c1c(F)cccc1Cl)NC1CCCC1	i	0.01
COc1ccc2[nH]cc(CCNS(=O)(=O)Cc3ccccc3)c2c1	i	0.92
COc1ccc(CCNC(=O)c2oc3ccc(OC)cc3c2C)cc1	i	-3
CCN1CCN(Cc2c(O)ccc3c2O/C(=C\C=C\c2ccccc2OC)C3=O)CC1	i	30
COc1cccc(C(=O)Nc2nc3ccc(S(C)(=O)=O)cc3s2)c1	i	0.27
CCCC(=O)NC(=S)Nc1c(C)cc(Br)cc1C	i	0.37
CC(C)C(=O)Nc1c(C(=O)c2ccc(F)cc2)oc2ccccc12	i	0.98
CC1(C)C(C=C(Cl)Cl)C1C(=O)N1CCN(Cc2ccccc2)CC1 (stereo not drawn)	i	1.9
CC(=O)Nc1cccc(NC(=O)CSc2nnc(Cc3cccn3C)n2-c2ccc(F)cc2)c1	i	2.8
COCCN1CCN(c2cc(-c3ccccc3)nc3cc(-c4cccc(F)c4)nn23)CC1	i	-0.52

Assay outcomes (PubChem BioAssay)
